Bioassay records deposited in PubChem BioAssay by National Center for Advancing Translational Sciences (NCATS).
Vaccinia Venus – vaccinia inhibition (Venus reporter). Vaccinia virus Venus reporter expression, fluorescence. Potency, µM (titrated, usually from 36.5 µM), for the others: at the highest dose activity change, negative = inhibition, hits mostly inhibitors. hit rate 0.46% among 330,000; active means well fitted inhibition curve with a large enough effect; inconclusive means small, poorly fitted or top-dose-only effect; inactive means no such curve, though single readings can be large or run the other way; tested in A549 cells; further: nearly all actives have a fitted effect of over 30% in size; inactives centre near -10
Vaccinia mCherry – inhibitors of vaccinia virus infection (mCherry reporter signal); Vaccinia virus mCherry reporter infection, fluorescence; about a quarter of the inactives have no number; Potency, µM (series often up to 36.5 µM), without a hit: at the highest dose activity change, negative = inhibition, actives largely listed as inhibitors; hit rate 0.63% among 310,000; active = well fitted inhibition curve with a large enough effect; inconclusive = small, poorly fitted or top-dose-only effect; inactive = no such curve, though single readings can be large or run the other way; tested in A549 cells; further: nearly all actives have a fitted effect of over 35% in size; inactives centre near -10
Numbers without * were called inactive; i = inactive; ? = inconclusive; . = no result given; [ ] = remark or other dose. On the % scale 0 is the no-effect control and ±100 the full control effect; potency means the concentration at half of the fitted maximal effect.

Structure | Vaccinia Venus | Vaccinia mCherry
COc1ccc(CCNc2ncnc3c2cnn3-c2ccc(F)cc2)cc1 | 3% | 10%
Cc1nn(-c2ccccc2)cc1C(=S)Nc1ccccc1 | -15% | i
Cc1c(C(=O)N(Cc2ccc(N(C)C)cc2)CC2CCCO2)oc2ccccc12 (stereo not drawn) | -6% | -8%
Cc1noc2ncnc(N3CCCC(C(=O)Nc4cc(F)ccc4F)C3)c12 (stereo not drawn) | -15% | -18%
COc1ccc(Cn2c(SCc3ccc(C(=O)NC4CCCCC4)cc3)nc3cccnc32)cc1 | ? | ?
CNc1ccccc1C(C)(C)c1cc(-c2cccc(OC)c2)no1 | 83%[activator] | 6%
COc1ccc(OC)c(N/C(C)=C/C(=O)c2ccccc2)c1 | -11% | -14%
O=C(CN1c2cccc3cccc(c23)S1(=O)=O)NCCc1ccccc1 | -22% | -21%

Following part.
Structure | Vaccinia Venus | Vaccinia mCherry
C=CCN(CC=C)C(=S)NC(=O)/C=C/c1ccccc1 | 3% | -14%
Cc1cccc(NC(=O)NC(=O)c2ccccc2)n1 | -8% | i
COc1ccc(NC(=S)N2CCN(S(C)(=O)=O)CC2)cc1OC | -12% | -11%
O=[N+]([O-])c1ccc2[nH]c3c(c2c1)CCCC3O (stereo not drawn) | -8% | -15%
O=C(NCC1CCCO1)c1cc(-c2ccccc2)nc2ccc(Br)cc12 (stereo not drawn) | -9% | -9%
CCOc1cc(/C=C2\C(=O)ON=C2c2ccccc2)cc(Br)c1O | 61%[activator] | 5%
O=C(O)COc1c(Cl)cc(/C=C2/NC(=O)NC2=O)cc1Br | -7% | -14%
CCC(C)NC(=O)C(=O)NC1CCCC1 (stereo not drawn) | -23% | i

Some of the entries so far, field by field.
Cc1nn(-c2ccccc2)cc1C(=S)Nc1ccccc1
  Vaccinia Venus: -15%; Vaccinia mCherry: i

Cc1c(C(=O)N(Cc2ccc(N(C)C)cc2)CC2CCCO2)oc2ccccc12 (stereo not drawn)
  Vaccinia Venus: -6%; Vaccinia mCherry: -8%

Cc1noc2ncnc(N3CCCC(C(=O)Nc4cc(F)ccc4F)C3)c12 (stereo not drawn)
  Vaccinia Venus: -15%; Vaccinia mCherry: -18%

COc1ccc(Cn2c(SCc3ccc(C(=O)NC4CCCCC4)cc3)nc3cccnc32)cc1
  Vaccinia Venus: ?; Vaccinia mCherry: ?

Continuation.
Structure | Vaccinia Venus | Vaccinia mCherry
CCOC(=O)C1CCN(C(=S)Nc2cccc(C)c2C)CC1 | -6% | -8%
Cc1cc(Cl)ccc1OCCCC(=O)NCc1ccncc1 | -8% | -28%
Cn1c(CNC(=O)CNS(=O)(=O)c2ccccc2)cc(=O)n(C)c1=O | -15% | -15%
Cc1cc(N2C(=O)C3C4CC(c5ccccc5)C(C4)C3C2=O)no1 (stereo not drawn) | -7% | 5%
COc1cccc(Nc2nc3ccccc3nc2-n2nc(C)cc2C)c1 | -7% | ?
CCOc1sc2nc(C)n(CC(=O)Nc3cccc(C)c3)c(=O)c2c1C | -1% | -2%
CCn1cc(CNC(=O)C2CCC(=O)N(C3CCCCCC3)C2)cn1 (stereo not drawn) | -7% | -19%
CCOC(=O)C1=C(CSc2nc3c(cc2C#N)CN(C)CC3)OC(N)=C(C#N)C1c1ccccc1 (stereo not drawn) | 12% | -12%

New compounds follow:
Structure | Vaccinia Venus | Vaccinia mCherry
Cc1ccccc1NC(=O)COc1coc(CN2CCN(Cc3ccccc3)CC2)cc1=O | -11% | i
Cc1cc(C)c(Nc2n[nH]c(=S)s2)cc1C | -3% | -8%
Cc1sc2nc(SCC(=O)N3CCOCC3)[nH]c(=O)c2c1C | -17% | i
C=CCn1c(SCC(=O)Nc2cccc(OC)c2)nnc1-c1cccnc1 | 1% | -7%
NC(=O)c1cc(NC(=O)CCNS(=O)(=O)c2cccc(C(F)(F)F)c2)cc(C(N)=O)c1 | 1% | -9%
COc1cc(/C=C(\C#N)c2nc3ccc(C)cc3[nH]2)ccc1OCc1ccc(C)cc1 | ? | ?
CCCSc1nc2c(=O)[nH][nH]c(=O)c2n1Cc1ccccc1 | -10% | -8%
COc1ccc(NC(=O)c2sc3nc[nH]c(=O)c3c2C)cc1Cl | -8%[7.34 µM] | -17%[7.34 µM]

Further results
Structure | Vaccinia Venus | Vaccinia mCherry
COCCNC(=O)C12CC3CC(CC(Cl)(C3)C1)C2 | -8% | i
O=C1[C@H](Cc2ccccc2)NCC=CC[C@@H](c2ccc(Cl)cc2)N1Cc1ccc(Cl)cc1 | -26% | ?
Cc1cc(=O)oc2cc(OCC(=O)OCc3nnc(-c4ccccc4)o3)ccc12 | 5% | -2%
Cn1c(=O)c2ncn(CC(=O)Nc3nc(-c4ccc(Cl)cc4)cs3)c2n(C)c1=O | ? | i
CN(C(=O)c1cccc(NC(=O)Cc2ccc(NC(=O)C3CCN(C(=O)C4CC4)CC3)cc2)c1)C1CCCC1 | -7% | i
O=C(O)CCn1cc(C=C2C(=O)NC(=S)NC2=O)c(-c2cccc(Br)c2)n1 | 0% | -2%
CCC1NC(=O)c2cc3ccccc3cc2-n2c1nc1cc(C)cc(C)c1c2=O (stereo not drawn) | -23% | -5%
O=C(NCC1CCCN1S(=O)(=O)c1cccs1)c1cccc([N+](=O)[O-])c1 (stereo not drawn) | -1% | -13%

Next records
Structure | Vaccinia Venus | Vaccinia mCherry
Cn1nc(C(=O)Nc2c(-c3ccccc3)nc3sccn23)c2ccccc2c1=O | -3% | -3%
Cn1nnc(NC(=O)c2cccc(OCc3ccccc3)c2)n1 | -11% | -10%
O=C(O)c1ccc([N+](=O)[O-])cc1Sc1ccsc1 | -3% | -19%
Cc1ccc2nc(SCC(=O)Nc3ccc4c(c3)OCCO4)nc(=O)n2c1 | -20% | -16%
O=C1C2CC=CCC2C(=O)N1c1nc2n(n1)C(c1ccccc1)CC(c1ccccc1)N2 (stereo not drawn) | -10% | .
CCOC(=O)c1nn(-c2ccc(OCC)cc2)c(C)c1C(C)=O | -13% | -16%
COc1ccc(NC(=O)CSc2nnc3ccc(-c4ccccn4)nn23)c(OC)c1 | 5% | 0%
COc1ccccc1N1CCN(C(=O)C2CCN(S(=O)(=O)c3ccc(Cl)cc3)CC2)CC1 | -17% | -17%

Following part:
Structure | Vaccinia Venus | Vaccinia mCherry
CCCC/C(O)=C1\C(=O)CC(C)(C)CC1=Nc1ccc(OC)cc1 | -12% | -27%
CCC1CN(S(=O)(=O)c2cc(-c3cc(C)no3)ccc2OC)c2cc(C)ccc2O1 (stereo not drawn) | -16% | -18%
COc1ccccc1NC(=O)COC(=O)CCS(=O)(=O)c1ccc(C)cc1 | -6% | i
COc1cccc(/C=N/NC(=O)c2ccncc2)c1OC(=O)c1ccc(Br)cc1 | -29% | 4.5µM*
CCCc1cc(=O)oc2c3c(cc(OCC(=O)N4CCC[C@H]4C(=O)O)c12)OC(C)(C)CC3 | 0% | -2%
O=C(c1cccnc1)N1CCC2CC1c1c(Cl)cccc12 (stereo not drawn) | 2% | i
NC(c1ccccc1)c1csc(NC(=O)Nc2cccc(C(F)(F)F)c2)n1 (stereo not drawn) | 11µM* | ?
COc1ccc(NC(=O)CNC(=O)Cn2ccc3ccccc3c2=O)cc1OC | -4% | -12%

(more compounds)
Structure | Vaccinia Venus | Vaccinia mCherry
Cc1ccc(NC(=O)COc2ccc(/C(N)=N/O)cc2)cc1C | -5% | ?
O=C(O)c1cc(O)c2c(c1)[C@@H]([C@H]1c3cc(C(=O)O)cc(O)c3C(=O)c3c(O[C@@H]4O[C@H](CO)[C@@H](O)[C@H](O)[C@H]4O)cccc31)c1cccc(OC3O[C@H](CO)[C@@H](O)[C@H](O)[C@H]3O)c1C2=O (stereo partly drawn) | -19% | i
COc1ccc(CC(=O)Nc2nccs2)cc1S(=O)(=O)N1CCOCC1 | -5% | 12%
COCc1nnc(NC(=O)c2ccc(OC)cc2OC)s1 | -7% | i
CCOC(=O)C1CCN(C(=O)COC(=O)c2ccccc2OCC)CC1 | -6% | i
COc1ccc(-c2sc3ccc(N4CCOCC4)cc3c2-c2ccc(OC)c(F)c2)cc1 | -17% | ?
CCCOc1ccccc1C(=O)N(Cc1cccc(Br)c1)C1CCS(=O)(=O)C1 (stereo not drawn) | -10% | -3%
CCCCN(C)C(=O)CN1C(=O)c2cccnc2Oc2ccc(Cl)cc21 | -6% | -7%

(further entries)
Structure | Vaccinia Venus | Vaccinia mCherry
Clc1ccc2nnc(Cl)n2n1 | -14% | i
COC(=O)c1ccc(C(=O)OC)c(NC(=O)C2CC(=O)N(C3CCCC3)C2)c1 (stereo not drawn) | -22% | -8%
Cc1ccc(NC(=O)C2CCN(S(=O)(=O)c3cnc[nH]3)CC2)cc1C | 1% | -9%
CCOc1cc(OCC)c(C(C)=O)cc1OCC | -12% | -18%
COc1ccccc1N1CCN(CCCCN2C(=O)CCC2=O)CC1 | -1% | -4%
Nc1ncncc1-c1ccc(F)cc1 | -1% | i
COC(=O)c1ccccc1NC(=O)CSc1nc(NC(=O)c2ccccc2)c2c(C)c(C)oc2n1 | -9% | .
CCn1c(NCCO)nc2c(c1=O)C(C)(CC)Cc1ccccc1-2 (stereo not drawn) | -27% | -10%

More records
Structure | Vaccinia Venus | Vaccinia mCherry
CN(C)CCCNC(=O)C[C@H]1C[C@H](C(=O)N2CCCCC2)[C@@]2(C)c3[nH]c4cc(-c5ccco5)ccc4c3CCN2C1=O | -14% | ?
O=C(COc1ccc(Oc2ccccc2)cc1)NC1CCS(=O)(=O)C1 (stereo not drawn) | -4% | i
CCc1ccc2c(c1)C(=O)c1ccccc1C2=O | 11% | i
CCn1c2ccccc2c2cc(NC(=O)COc3ccccc3OC)ccc21 | ? | -15%
Cc1ccccc1-n1c(C)nc2ccccc2c1=O | 0% | -6%
Cc1cc(NC(=O)CCC(=O)N(CC2CCCO2)C(C(=O)NC2CCCC2)c2ccccc2C)no1 (stereo not drawn) | -2% | -11%
O=C(Nc1ccc2c(c1)OCCO2)C1c2ccccc2OCC(=O)N1Cc1cccnc1 (stereo not drawn) | 0% | 15%
COc1ccc2c(c1OC)C(=O)OC2Nc1nc(-c2cc3ccccc3oc2=O)cs1 (stereo not drawn) | ? | ?

Going on with the list:
Structure | Vaccinia Venus | Vaccinia mCherry
COc1ccc(CCNS(=O)(=O)c2cc3c4c(c2)CCN4C(=O)CC3)cc1OC | -11% | -17%
O=C(Nc1nccs1)NC(C(F)(F)F)C(F)(F)F | -2% | .
COc1cccc(/C=N/NC(=O)Cn2ccnc2C)c1 | -2% | -1%
COC(=O)c1cccc(NS(=O)(=O)c2ccc(OC)cc2)c1C | -23% | .
CCCCc1c(O)c2cccc3c2n(c1=O)CCC3 | -7%[7.34 µM] | -4%[7.34 µM]
O=[N+]([O-])c1ccc(C[n+]2cccc3c4ccccc4ccc32)cc1 | -26% | ?
CCC(c1nnnn1Cc1ccccc1)N(Cc1cc2cc(OC)ccc2[nH]c1=O)CC1CCCO1 (stereo not drawn) | -19% | -18%[1.46 µM]
CCOc1ccc(CNC(=O)CCCC(=O)n2ncc3cc(C)ccc32)cc1 | -2% | 4%

New compounds follow
Structure | Vaccinia Venus | Vaccinia mCherry
CCOC(=O)C(CC)Sc1nnc(COc2ccc(C)cc2)n1-c1ccccc1 (stereo not drawn) | -6% | -6%
CN(/N=C/c1ccc(-c2ccc([N+](=O)[O-])cc2)o1)c1ccccc1 | 128%[activator] | -18%
CCOC(=O)CSc1nc2sc3c(c2c(=O)n1Cc1ccccc1)CC(C)CC3 (stereo not drawn) | -12% | -14%
Cc1nc(C2COc3ccccc3O2)sc1C(=O)O (stereo not drawn) | -8% | -10%
CC(C)COc1ccc(C(=O)CCN2CCCCC2)cc1 | -9% | .
Cc1cccc(C(=O)O)c1NC(=O)Cc1cccc2ccccc12 | -18% | -3%
CCCCn1c(NCCC)nc2c1c(=O)[nH]c(=O)n2C | -1% | -8%
CCCCNC(=O)c1onc(CSc2ccccc2)c1C(=O)NCCCC | -10% | i

(further entries)
Structure | Vaccinia Venus | Vaccinia mCherry
CCOc1ccc(NC(=O)CSc2nc3c(c(=O)[nH]2)CCCC3)cc1 | -10% | -8%
CCOc1ccc(CCNC(=O)c2nnn(CC(=O)Nc3c(C)cc(C)cc3C)c2N)cc1OCC | -1%[7.34 µM] | i[7.34 µM]
Cc1ccc(-c2ccc(CCC(=O)O)n2-c2cccc(O)c2)cc1 | 2% | -8%
COC(=O)C1=C(C)NC(C)=C(C(=O)OCC(C)C)C1c1ccccc1[N+](=O)[O-] (stereo not drawn) | -28% | ?
COc1cc(NC(=O)c2ccc3c(Cl)c4c(nc3c2)CCC4)cc(OC)c1OC | -18% | -18%
O=C(NCC1CCCO1)c1ccc(NS(=O)(=O)c2cccs2)cc1 (stereo not drawn) | 0%[7.34 µM] | -1%[7.34 µM]
CCCCCCCCCCCCCCCC[N+](C)(C)C | ? | ?
Cc1ccnc(NC(=S)NC(=O)c2ccco2)c1 | 1% | -14%

Next compounds.
Structure | Vaccinia Venus | Vaccinia mCherry
CCc1ccccc1OCCOc1ccc(C)cc1OC | -7% | -12%
CC(=O)N1c2ccc(S(=O)(=O)NCC3CCC(C(=O)N4CCCC(C)C4)CC3)cc2CC1C (stereo not drawn) | -13%[7.34 µM] | i[7.34 µM]
COC(=O)[C@@]12C[C@@H](CC(=O)N3CCCC3)C(=O)N(Cc3ccccc3)C1=CCC(C)(C)C2 | -1% | -12%
O=C(Nc1ccc(F)cc1)c1cccc(N2C(=O)C3C4CCC(C4)C3C2=O)c1 (stereo not drawn) | -25% | -6%
Cc1cccc(-n2ncc(C(=O)N3CCN(Cc4ccccc4)CC3)c2C2CCN(C(=O)OC(C)(C)C)CC2)c1 | -16% | -24%
COc1ccc(OC)c(CNC(=O)c2ccc(C)c(NC(=O)c3nsc4ccccc34)c2)c1 | -8% | -11%
